UCH37 DUB inh = inhibitors of human deubiquitinating enzyme UCH37; hit rate 0.33% among 330,000; purified proteasome/UCH37, Ub-AMC cleavage fluorescence; AID 588478; Q9Y5K5; inhibition, % (concentration not given with the values);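 active = mean of two replicates above 20%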;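 note: 0% = compound-free wells with enzyme and 100% = wells lacking proteasome; stock transfer was 100 nL into about 20 µL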
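Reagent: Ub-AMC substrate; assay system: Proteasome-associated human UCH37 deubiquitinase; controls: no-proteasome and no-compound wells; read-out: % inhibition of Ub-AMC cleavage fluorescence; timing: 30 min preincubation with enzyme, 25 min cleavage at room temperature; signal: AMC fluorescence from Ub-AMC cleavage, excitation 355 nm, emission 460 nm; buffer or medium: Tris-HCl pH 7.4 plus ovalbumin, ATP-MgCl2, DTT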
rRNA inh HTS = inhibitors of bacterial rRNA selective over humanized ribosomes; E. coli WT GFP vs humanized-ribosome RFP mutants, fluorescence, 24 h; stronger effect = lower value; DMSO median 0, no signal -100; hit rate 1.6% among 350,000; GFP signal change (wild-type ribosome), % (concentration not given with the values); AID 720706;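 active = significant combined selectivity score with lowered wild-type GFP, culture density cut under 30%, mutant RFP and density less affected; inactive = any of these conditions unmet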; note: one replicate is shown; some compounds called inactive have numbers as strong as hits
HNF4A DNA FP = change in binding of human HNF4 alpha to DNA; HNF4a-FITC DNA binding, fluorescence polarization, 1 h; activity change, % at 10 µM; hit rate 0.3% among 360,000; AID 1224865; in the data active = activity change above about 30%, passing the limit was not always enough;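 note: controls were the assay level and a saturating level of protein; the project sought stronger binding though the title names inhibitors; some compounds called inactive have numbers as strong as hits; positive values seem to mean higher polarization but the record does not say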
Target sequence (P41235 whole entry, looked up): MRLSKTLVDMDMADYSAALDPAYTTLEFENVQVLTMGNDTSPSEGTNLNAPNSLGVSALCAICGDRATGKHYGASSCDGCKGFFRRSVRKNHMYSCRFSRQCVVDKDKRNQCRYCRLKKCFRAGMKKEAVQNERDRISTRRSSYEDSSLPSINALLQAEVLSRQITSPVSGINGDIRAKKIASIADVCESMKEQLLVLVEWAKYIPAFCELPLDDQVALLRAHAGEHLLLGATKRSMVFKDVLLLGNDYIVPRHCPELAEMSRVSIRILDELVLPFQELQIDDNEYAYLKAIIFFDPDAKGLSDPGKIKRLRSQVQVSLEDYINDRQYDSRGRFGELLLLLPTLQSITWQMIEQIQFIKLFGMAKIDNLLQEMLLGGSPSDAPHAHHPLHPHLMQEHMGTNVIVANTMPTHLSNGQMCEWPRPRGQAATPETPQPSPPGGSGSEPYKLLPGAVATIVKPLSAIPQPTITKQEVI
FGF22 binding = binders of recombinant human FGF22 by thermal shift. SYPRO orange fluorescence; percent of sucrose octasulfate shift, DMSO zero. calls only at 9.99 µM. hit rate 1.5% among 340,000;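 active = melting point raised past a set limit in the mean and every replicate; three in four hits are not shown here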
Target sequence (Q9HCT0 whole entry, looked up): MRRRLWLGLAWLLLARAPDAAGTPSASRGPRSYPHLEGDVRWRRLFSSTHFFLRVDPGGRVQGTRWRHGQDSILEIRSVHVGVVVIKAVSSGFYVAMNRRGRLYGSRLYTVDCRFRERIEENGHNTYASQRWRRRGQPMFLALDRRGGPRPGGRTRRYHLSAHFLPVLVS
Beta2AR agonist = activates human beta-2 adrenergic receptor causing internalization; response, % (no concentration beside the values); hit rate 0.43% among 340,000; Am2.2-beta2AR cells, FAP receptor internalization, flow cytometry; reference of the scale not given here; AID 504454;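 active = response above a set limit, near 3 SD of response in nonfluorescent compounds, cut at about 42% in these data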;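 note: stock transfer was 100 nL into about 11 µL; a reference agonist was the positive control; negative values mostly stem from fluorescent compounds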
Target sequence (P07550 whole entry, looked up): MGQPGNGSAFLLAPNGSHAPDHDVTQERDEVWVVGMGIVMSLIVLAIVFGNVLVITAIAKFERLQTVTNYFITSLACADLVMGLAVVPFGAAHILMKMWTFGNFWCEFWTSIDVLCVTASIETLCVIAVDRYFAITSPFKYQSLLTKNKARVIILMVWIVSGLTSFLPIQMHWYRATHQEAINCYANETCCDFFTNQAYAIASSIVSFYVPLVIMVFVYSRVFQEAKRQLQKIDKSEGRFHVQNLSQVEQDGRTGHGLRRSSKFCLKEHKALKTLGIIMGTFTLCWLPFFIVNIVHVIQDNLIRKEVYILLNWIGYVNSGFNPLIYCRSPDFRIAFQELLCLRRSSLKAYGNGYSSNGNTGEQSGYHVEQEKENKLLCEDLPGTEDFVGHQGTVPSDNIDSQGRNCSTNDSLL
Ecoli growth = blocks Escherichia coli growth; OD600, 23 h; stronger effect = lower value; OD600 absorbance (no concentration beside the values); hit rate 0.21% among 330,000;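 active = OD600 absorbance below the run mean of sample wells minus 3.6 SD, in any replicate, cut at about 0.56 in these data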;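 note: stock transfer was 300 nL into about 60 µL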
ALR H2O2 inh = human ALR oxidase inhibition via reduced H2O2; purified ALR, DTT oxidation, H2O2 HRP-luminol luminescence; inhibition, % (concentration not given with the values); hit rate 3.8% among 290,000;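 active = mean and each replicate at 75% or more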;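 note: stock transfer was 7.5 nL into about 7.5 µL; 0% = neutral wells and 100% = wells with inactivated enzyme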
rRNA inh HTS OD600 = recorded beside rRNA inh HTS, whose call it bears; OD600 change, %; measured here: OD600 growth;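 optical density of the mix in the first replicate; 0 = DMSO median and -100 = no signal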
rRNA inh HTS RFP = further read-out of rRNA inh HTS, marked with its call; RFP signal change, %; measured here: RFP humanized mutant strains;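 first replicate; 0 = DMSO median and -100 = no signal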
Starred values were filed as active, the others as inactive; i = inactive; / = no result given; + = active, no number; & = joins results of further samples. An excerpt; the hit share may differ from the screen's.

SMILES	UCH37 DUB inh	rRNA inh HTS	rRNA inh HTS OD600	rRNA inh HTS RFP	HNF4A DNA FP	FGF22 binding	Beta2AR agonist	Ecoli growth	ALR H2O2 inh
O=C(NC1=NCCS1)c1cc(Cl)ccc1Cl	1.6	10	-7	1.1	-1.3	i	-5	0.69	12
C[C@H](CO)N1C[C@H](C)[C@@H](CN(C)C(=O)Nc2ccccc2)Oc2c(NC(=O)Nc3ccc4c(c3)OCO4)cccc2C1=O	3.2	-1&5	6&5	1.2&0.4	-0.2	i	3	/	-13
Cc1cccc(NC(=O)N2C3CCCC2CC(NC(=O)C2CC2)C3)c1 (configuration not stated)	1.6	6	6	-1.0	-0.6	i	-4	0.67	12
C[C@H](CO)N1C[C@H](C)[C@@H](CN(C)Cc2ccc(Oc3ccccc3)cc2)OCc2cnnn2CCCC1=O	/	2&-4	-3&-10	7.8&6.1	-2.0	i	/	/	/
COc1ccc(NC(=O)CCC(=O)c2ccc(Cl)cc2)cn1	-2.6	-4	0	0.5	-5.2	i	6	0.68	/
CCOc1cc2[nH]c(=S)n(CCC(=O)N3CCc4ccccc4C3)c(=O)c2cc1OCC	-1.0	2	16	1.2	-2.3	/	2	0.77	-10
COc1ccc2[nH]c3c(c2c1)CCN1C(=O)C(CC(=O)NCCCn2ccnc2)C[C@H](C(=O)N2CCOCC2)[C@@]31C (some centres not stated)	1.8	9	4	1.3	-6.0	i	-14	0.68	/
C[C@H](O)[C@@H]1C(=O)N2CCc3ccc(N4CCN(C)CC4)cc3[C@@H]2C[C@@H]1N(C)C(=O)Nc1cc(Cl)cc(Cl)c1	/	-12	-14	0.0	-0.2	i	9	/	/
CCCCNc1nc2c(S(=O)(=O)c3ccccc3)nnn2c2ccccc12	-43	-3	1	0.9	-2.9	i	-1	0.76	-28
O=C(COC(=O)c1ccccc1NCCO)NNC(=O)c1cccs1	-326	5	10	-0.4	-4.5	i	-10	0.67	-1
O=C(COC(=O)c1cc[n+]([O-])cc1)Nc1ccc(Cl)c(C(F)(F)F)c1	2.4	-1	2	1.5	5.3	i	7	0.65	/
Nc1nc2ccccc2n1CCOc1ccc(Cl)cc1	1.6	-37	-62	-8.6	0.3	i	6	0.52	/
CC(C)(C)NC(=O)C(OC(=O)c1cccs1)c1ccc(F)cc1 (configuration not stated)	4.1	25	9	1.0	4.4	/	0	0.69	-1
Cc1ccc2c(c1)CCCN2C(=O)C1CCCO1 (configuration not stated)	-1.2	11	-6	-8.5	0.6	i	-3	0.71	-1
COCCN(C(=O)COC(=O)c1cc2ccccc2cc1O)c1c(N)n(Cc2ccccc2)c(=O)[nH]c1=O	-1.3	-18	-22	-0.3	0.8	i	1	0.69	-29
O=C(COc1nncc2ccccc12)NCCC1=CCCCC1	-0.6	/	/	/	-2.1	/	1	0.68	/
CCOC(=O)CSc1nc(C2CC2)nc2ccccc12	3.4	/	/	/	1.6	/	-6	0.71	-2
CSc1nnc(-c2ccccc2Cl)o1	0.9	/	/	/	0.1	/	0	0.7	-9
Cc1ccc(-n2nc(-c3cccnc3)cc2C(=O)N2CCOCC2)c(C)c1	0.3	/	/	/	-2.8	/	11	0.73	-29
COc1ccc(-n2nc(C(=O)NCC(=O)NCc3ccc(F)cc3)c3ccccc3c2=O)c(OC)c1	-4.2	/	/	/	1.1	/	5	0.74	/
Cc1cc(C)[n+]2n1C(=O)C(c1ccccc1)=C2[O-]	-0.1&0.0	14&0	14&1	2.5&-2.0	-5.1&4.3	i	-1&-9	0.71&0.71	-6
O=C(CNC(=O)c1ccc(OC(F)F)cc1)NCc1ccccn1	1.5	0	8	-0.4	-1.4	i	-4	0.65	-11
O=C(N/N=C/c1cccs1)/C(=C/c1ccccc1)NC(=O)c1ccccc1	/	/	/	/	3.8	/	-1	/	2
O=C(COC(=O)CCC(=O)c1cccs1)NC(=O)c1ccc(OC(F)F)cc1	4.2	3	-6	3.0	-0.9	i	0	0.66	/
Cc1c(C(=O)NC2CCCc3ccccc32)oc2ccc(S(=O)(=O)N3CCCCC3)cc12 (configuration not stated)	2.6	/	/	/	1.3	/	9	/	-6
CCCCOCP(=O)(CC)COCCCC	-1.5	/	/	/	2.8	/	2	0.73	0
CCC1(c2ccccc2)NC(=O)N(CC(=O)NNC(=O)c2ccc(F)cc2)C1=O (configuration not stated)	3.7	0	11	-3.8	-1.6	i	4	0.7	/
CC(C)Nc1nc(NC(C)C)nc(SCCOC(=O)Nc2ccc(Cl)cc2Cl)n1	6.8	4	2	-0.6	0.5	i	5	0.69	-3
CC(CC(=O)Nc1ccc2c(c1)OCCO2)c1ccccc1 (configuration not stated)	1.3	/	/	/	0.6	/	1	0.7	-12
CC(C)N1C(=O)C(=O)N(CC(=O)N2c3ccccc3CC2C)C1=O (configuration not stated)	/	10	12	2.3	1.9	i	/	/	/
CN1C(CCl)Nc2cc(Cl)c(S(N)(=O)=O)cc2S1(=O)=O (configuration not stated)	/	3	13	1.9	-1.1	i	-9	/	/
COc1ccc(CCNS(=O)(=O)c2ccc3c(c2)n(C)c(=O)c(=O)n3C)cc1OC	/	6	3	1.6	1.1	i	0	/	/
O=C1NC[C@H](CCCCN2C[C@H](Cc3ccc(O)cc3)N(CC3CCCCC3)C(=O)C2=O)N(CC2CCCCC2)C1=O	/	-45	-76	-8.4	2.6	i	/	/	/
N#CCn1cc(/C=N/NC(=O)c2cc3c(ccc4ccccc43)o2)c2ccccc21	/	-42	-59	-7.1	1.4	i	13	/	-16
CCN1C(=O)C2(C(C#N)=C(N)Oc3c2c(C)nn3-c2ccccc2)c2ccccc21 (configuration not stated)	1.5	-19	-8	-0.1	0.3	i	0	0.67	26
CCC(c1nnnn1C1CCCCC1)N1CCN(C2CCCC2)CC1 (configuration not stated)	-0.4	/	/	/	3.2	/	0	0.69	-3
CCCCCCCCN1C(=O)[C@H](CC(=O)NCC23CC4CC(CC(C4)C2)C3)C[C@@]2(C(=O)OC)CCCCC=C12	/	20	12	3.8	-2.6	i	/	/	/
C[C@H]1CN([C@@H](C)CO)C(=O)CCCn2nncc2CO[C@@H]1CN(C)C(=O)c1ccncc1	/	7&2	7&-3	17&-0.4	1.4	i	/	/	/
O=C1C2C3CC(C2C(=O)N1c1cccc(Cl)c1)[C@H](O)C3O (some centres not stated)	2.4	11	7	1.5	-0.4	i	0	0.66	0
CC(C)(C)C(=O)Nc1ccc(N2CCCC2)cc1	1.2	/	/	/	-1.0	/	15	0.73	49
Cc1ccc(CCNC(=O)C2CCN(S(=O)(=O)c3ccc4nc5c(c(C(=O)O)c4c3)CCCC5)CC2)cc1	4.5	1	11	6.8	-0.6	i	-4	0.7	-13
Cc1c(NC(=O)CSc2nncn2-c2ccccc2)c(=O)n(-c2ccccc2)n1C	1.5	14	8	3.9	1.7	/	-5	0.56	/
CCNC(=S)NNC(=O)c1cccnc1	1.7	/	/	/	-0.5	/	2	0.67	/
Cc1ccc(C2=[N+]([O-])C3(CCCCC3=O)N(O)C2(C)C)cc1 (configuration not stated)	3.3	/	/	/	-2.8	/	10	0.65	-11
CC(C#N)Sc1ncnc2sc3c(c12)CCC3 (configuration not stated)	-0.3	/	/	/	-1.1	/	-3	0.67	-2
COC(=O)CCCCCc1ccc(C(C)=O)s1	1.2	/	/	/	0.7	/	4	0.73	-7
CC(C)NC(=O)C1CCN(C2CCN(C(=O)c3scc4c3CCCC4)CC2)CC1	-3.0	11	0	-6.7	2.7	i	2	0.68	-22
O=C(O)c1cccc(COc2ccc3c(c2)CCC3)c1	2.2	-25	-21	-5.3	-2.8	i	7	0.68	91*
Cc1csc(SCC(=O)Nc2cc(C(C)(C)C)nn2-c2ccccc2)n1	1.1	/	/	/	1.1	/	-19	0.64	-1
CC1=NN(C)C(=O)C1Cc1c(F)cccc1Cl (configuration not stated)	-0.4	1	0	2.5	3.4	i	-1	0.69	8
Cc1cc(C(=O)CSc2nnnn2C)c(C)n1CCc1ccc(F)cc1	-1.6	/	/	/	-1.3	/	-1	0.75	4
N#CC1=C(N)N2C(=C(C#N)C13CCCCC3)SC1CCCCC12O (configuration not stated)	-3.4	/	/	/	-2.4	/	4	0.72	5
Cc1cc(-c2nnc(SCC(=O)Nc3cccc(Cl)c3)n2N)n[nH]1	4.1	2	1	-1.3	3.1	i	4	0.62	-2
CCc1nnc(NC(=O)CSc2n[nH]c(-c3ccccc3O)n2)s1	1.6	-23	-22	-3.2	3.5	+	-11	0.62	16
CN(c1nc2ccccc2[nH]c1=O)C1CCCCC1	-16	16	9	1.0	-6.1	i	0	0.69	/
O=S(=O)(c1ccccc1)N1CCC2(CC1)OCCO2	1.2	15	11	1.7	-6.0	i	0	0.64	-10
O=c1cc(-c2ccccc2)c2ccc(O)cc2o1	-34	0	5	-1.6	3.5	i	4	0.56	8
CC(C)(C)C(=O)/C=C1\NC(=O)CS1	4.0	16	9	0.0	-1.3	i	-5	0.73	/
O=C(Cc1nc2ccccc2[nH]1)c1cccc([N+](=O)[O-])c1	/	10	-7	0.3	0.1	/	15	/	12
COc1ccc(OCC(=O)OC2CCCN(C)C2)cc1 (configuration not stated)	2.2	16	2	-0.5	0.0	i	0	0.71	-13

(next part)
SMILES	UCH37 DUB inh	rRNA inh HTS	rRNA inh HTS OD600	rRNA inh HTS RFP	HNF4A DNA FP	FGF22 binding	Beta2AR agonist	Ecoli growth	ALR H2O2 inh
O=c1cc(-c2ccccc2Cl)oc2cc(O)cc(O)c12	4.3	-10	-4	-0.1	2.8	i	-11	0.73	-1
Fc1ccccc1COc1cccc2cccnc12	/	-20	-3	-0.3	-4.7	i	-8	/	/
CC(=O)N1c2c(cc(Br)cc2S(=O)(=O)N2CCCCC2)CC1C (configuration not stated)	3.1	-19*	-14*	1.4*	-0.9	i	-13	0.71	-2
CCOC(=O)c1ccccc1NC(=O)COc1cc(=O)n(CC)c2ccccc12	4.4	/	/	/	0.8	/	15	0.7	-4
COc1ccc(C(=O)NCC(=O)OCC(=O)NCCC2=CCCCC2)cc1	5.4	-7	-3	1.7	1.6	i	1	0.62	/

Ordered by length of the SMILES (low to high): part of the list above
SMILES	UCH37 DUB inh	rRNA inh HTS	rRNA inh HTS OD600	rRNA inh HTS RFP	HNF4A DNA FP	FGF22 binding	Beta2AR agonist	Ecoli growth	ALR H2O2 inh
CC(C)(C)C(=O)/C=C1\NC(=O)CS1	4.0	16	9	0.0	-1.3	i	-5	0.73	/
O=c1cc(-c2ccccc2)c2ccc(O)cc2o1	-34	0	5	-1.6	3.5	i	4	0.56	8
O=c1cc(-c2ccccc2Cl)oc2cc(O)cc(O)c12	4.3	-10	-4	-0.1	2.8	i	-11	0.73	-1
COc1ccc(C(=O)NCC(=O)OCC(=O)NCCC2=CCCCC2)cc1	5.4	-7	-3	1.7	1.6	i	1	0.62	/
O=C(Cc1nc2ccccc2[nH]1)c1cccc([N+](=O)[O-])c1	/	10	-7	0.3	0.1	/	15	/	12
CCOC(=O)c1ccccc1NC(=O)COc1cc(=O)n(CC)c2ccccc12	4.4	/	/	/	0.8	/	15	0.7	-4

Compound activity: PubChem, several laboratories
